Screens deposited in PubChem BioAssay by National Center for Advancing Translational Sciences (NCATS).
gsp agonist = qHTS for Agonist of gsp, the Etiologic Mutation Responsible for Fibrous Dysplasia/McCune-Albright Syndrome: qHTS. gsp mutant cells, cAMP HTRF, 30 min; control for the full effect not named in the record. Potency, µM (highest dose often 76.9 µM), inactives show at the highest dose activation (cAMP increase), most hits filed as activators. 340,000 tested, 0.13% active. AID 624287, 2012; active = well fitted activation curve with a large enough effect; inconclusive = small, poorly fitted or top-dose-only effect, or another doubt; inactive = no such curve, though single readings can be large or run the other way; cell line not stated here;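 also: phosphodiesterase inhibitor Ro 20-1724 added with compounds to block cAMP breakdown; potency is read from the fitted curve at half-maximal effect; nearly all actives have a fitted effect of over 60% in size; about a fifth of the inactives were tested at one dose only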
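Cells in DMEM/10% FBS with G418 were pretreated with compounds in DMSO plus […] (300 uM stock) for 30 min at 37C. cAMP was measured by HTRF (cAMP-d2 plus anti-cAMP antibody-K) after 30 min at room temperature.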
TRPML1 ag = qHTS for Agonists of the Human Mucolipin Transient Receptor Potential 1 (TRPML1); AID 624414, 2012; TRPML1-expressing cells, Ca2+ dye fluorescence, FDSS; host cell line not named in the record; reference of the full effect not given here; Mucolipin-1 (Homo sapiens), Q9GZU1; 410,000 tested, 0.12% active; activation, % (concentration not given with the values); in the data active = activation above about 50%; inconclusive = about 30% to 50%; inactive = below about 30%; also: 0% is about no effect; the text of the record puts the active cut at 80%
Target sequence (Q9GZU1 whole entry, looked up): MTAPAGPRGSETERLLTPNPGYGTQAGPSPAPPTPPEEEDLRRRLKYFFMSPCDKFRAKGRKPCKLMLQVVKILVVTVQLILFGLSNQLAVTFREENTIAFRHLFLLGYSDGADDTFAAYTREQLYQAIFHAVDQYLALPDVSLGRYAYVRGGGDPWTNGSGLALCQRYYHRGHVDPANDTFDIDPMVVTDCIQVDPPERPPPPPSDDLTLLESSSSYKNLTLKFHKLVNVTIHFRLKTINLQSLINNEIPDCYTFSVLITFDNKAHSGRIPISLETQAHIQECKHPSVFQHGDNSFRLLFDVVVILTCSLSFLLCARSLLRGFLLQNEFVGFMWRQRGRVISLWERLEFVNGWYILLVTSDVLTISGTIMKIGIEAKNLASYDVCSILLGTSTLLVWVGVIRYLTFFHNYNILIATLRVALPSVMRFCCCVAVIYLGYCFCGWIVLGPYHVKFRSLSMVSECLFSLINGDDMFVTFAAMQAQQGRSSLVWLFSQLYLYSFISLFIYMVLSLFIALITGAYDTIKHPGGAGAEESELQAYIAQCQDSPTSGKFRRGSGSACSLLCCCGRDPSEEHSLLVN
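Cells: TRPML1-DL, 1X Tet inducer, ~16 h at 37 degrees C/5% CO2. Dye: ABD Ca8 no-wash + quencher, 45-90 min RT. Read: 10 s baseline, compound add, 110 s agonist phase; 54-4 EC80 (4uM final), 110 s antagonist phase.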
ClpP mod = qHTS Assay for Activators of ClpP. purified B. subtilis ClpP, FRET peptide cleavage, 20 min. Potency, µM (highest dose often 57.5 µM), for inactives: top-dose activity change, negative = active. AID 651965, 2013. 340,000 tested, 1.9% active. ATP-dependent Clp protease proteolytic subunit (Bacillus subtilis (strain 168)), P80244; active = well fitted falling curve with a large enough effect; inconclusive = small, poorly fitted or top-dose-only effect; inactive = no such curve, though single readings can be large or run the other way; also: potency is read from the fitted curve at half-maximal effect; the source files actives as falling curves though it sought activators and does not explain the sign; nearly all actives have a fitted effect of over 65% in size; many hits overshoot -100%
Target sequence (P80244 whole entry, looked up): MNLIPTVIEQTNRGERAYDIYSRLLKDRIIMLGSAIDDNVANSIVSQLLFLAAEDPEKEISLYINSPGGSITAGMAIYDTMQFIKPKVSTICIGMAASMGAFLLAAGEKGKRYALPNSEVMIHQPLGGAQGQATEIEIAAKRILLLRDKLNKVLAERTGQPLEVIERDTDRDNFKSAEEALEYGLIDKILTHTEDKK
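Buffer: 100 mM Tris/HCl pH8, 100 mM KCl, 0.05% low protease BSA, 2.5% glycerol, 0.01% Tween-20. ClpP 10 microg/mL final; 20 min RT; delta FRET normalized to ADEP and DMSO controls.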
TRPML1 blocker = qHTS for Inhibitors of the Human Mucolipin Transient Receptor Potential 1 (TRPML1). Mucolipin-1 (Homo sapiens), Q9GZU1. TRPML1-inducible cells, Ca2+ dye fluorescence, FDSS; hits give low values; inhibition of EC80 agonist-evoked calcium signal. activity change, negative = inhibition, % (test concentration not listed). 390,000 tested, 0.02% active. AID 624415, 2012; in the data active means activity change below about -50%; inconclusive means about -30% to -50%; inactive means above about -30%;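 also: stimulus is agonist 54-4 at its EC80 concentration; % is scaled to controls: 0 for no effect and ±100 for the full control effect; compound concentration not given in the record; the text of the record puts the active cut at -80%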
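Calcium fluorescence in TRPML1-DL cells induced overnight with Tet: a 110 s read after compound pin addition, then a 110 s antagonist read after challenge with 54-4 at 4 uM final (EC80).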
Menin-MLL FL inh = qHTS Assay for Inhibitors Targeting the Menin-MLL Interaction in MLL Related Leukemias: Competition With Fluorescein Labeled MLL-derived Peptide; FP activity change, % at 61.4 µM; 290,000 tested, under 10 active; Fluorescence polarization, fluorescein-MLL peptide displacement from menin; AID 1766, 2009; inconclusive = falling polarisation curve, or a change in total fluorescence; inactive = total fluorescence flat and polarisation flat or rising; no compound was filed as active; the % refers to the polarisation; negative = inhibition;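 also: % of control where 0% means no effect; inhibitors lower the polarisation; unlabelled MLL peptide was the positive control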
gsp antagonist = qHTS for Antagonists of gsp, the Etiologic Mutation Responsible for Fibrous Dysplasia/McCune-Albright Syndrome: qHTS; gsp-mutant cells, cAMP HTRF, 30 min; control for the full effect not named in the record; Potency, µM (highest dose often 76.9 µM), for inactives: at the top dose activity change, negative = inhibition, most hits filed as inhibitors; 340,000 tested, 0.4% active; AID 624288, 2012; active = falling curve of any shape with a large fitted effect; inconclusive = falling curve, mostly with a smaller effect; inactive = flat or rising curve; cell line not stated here;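 also: intracellular cAMP measured with PDE inhibitor Ro 20-1724 present during compound exposure; potency is read from the fitted curve at half-maximal effect; % is scaled to controls: 0 for no effect and ±100 for the full control effect; nearly all actives have a fitted effect of over 65% in size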
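Measurement of cellular cAMP by homogeneous time-resolved fluorescence following a 30 min compound exposure at 37C. The PDE inhibitor […] was present throughout; the assay buffer was DPBS with 0.05% BSA and 0.005% Tween 20.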
Active calls of the source: *; ? = inconclusive; / = not tested or not shown; & = joins results of further samples; [ ] = dose if it differs, or a comment.

SMILES | gsp agonist | TRPML1 ag | ClpP mod | TRPML1 blocker | Menin-MLL FL inh | gsp antagonist
CC(=O)c1cccc(S(=O)(=O)NCCC(=O)NC2CCCCCC2)c1 | 25% | -0.4 | 1.3% | -9 | / | 12%
CCOC(=O)c1ccc(NC(=O)c2nc[nH]c2C(=O)NCCCCCNC(=O)OC(C)(C)C)cc1 | -42%[inhibitor] | -0.2 | 103% | -7 | -0.8 | -26%
COc1cc(NC(=O)c2ccc(C)cc2)c(OC)cc1NC(=O)CN1CCCCC1 | -22%[15.4 µM] | 9.0 | -2.4% | 27 | 4.1 | -7%
COc1cccc(NC(=O)CN2CCC(C)CC2)c1 | 24% | -0.2 | 0.7% | -9 | 0.6 | 1%
CCN(CC)CCn1c2ccc(F)cc2c2nc(C)sc21 | 25% | 0.4 | 0.6% | 12 | 1.3 | 1%
Cc1cccc(OCCCN2C(=O)C(=O)c3cc(C)ccc32)c1 | -19% | / | 1.3% | / | 0.2 | 26%
COc1ccc(CN(Cc2ccc(C(=O)O)cc2)C(=S)Nc2cccc(C)c2)cc1OC | -37%[inhibitor] | -0.1 | / | -3 | -0.7 | -6%
O=C(NNC(=O)c1cccc2ccccc12)c1ccc(F)cc1 | -8%[15.4 µM] | -0.4 | 1.0% | -10 | / | 1%
CCCCN=C(N)/C(C(=O)OCC)=C(\O)c1ccc(OC)cc1 | 2% | 4.7 | -2.8% | -3 | 0.0 | -25%
NC(=O)CCCn1c(C(=O)c2ccc(Cl)cc2)c2ccc([N+](=O)[O-])cc2[n+]1[O-] | -3% | -0.4 | -2.2% | 14 | / | -5%
Cc1nnc(SCc2nnc(-c3cccs3)o2)n1C1CCCCC1 | ? | -0.5 | 1.1% | -12 | 0.0 | -1%
CC(=O)Nc1ccc(/C=N/Nc2ccc(C(=O)c3c(C)cc4ccccn34)cc2[N+](=O)[O-])cc1 | -1% | 0.7 | -0.4% | -1 | 0.8 | 8%
Cn1c(=O)c(=O)n(C)c2cc(S(=O)(=O)N3CC(=O)N(CCc4ccccc4)C(=O)C3)ccc21 | 13% | -0.1 | ? | 7 | 6.0 | 6%
CC1CCCCC1NC(=O)Cn1cc([N+](=O)[O-])ccc1=O (configuration not stated) | -32%[inhibitor] | -0.2 | 1.4% | -9 | / | 3%
O=C(O)CCC(=O)OCC1CCCCC1 | 3% | 0.1 | 0.7% | -17 | 4.4 | 0%
CCOc1ccc(C(C)NC(=O)Nc2ccc(F)cc2F)cc1 (configuration not stated) | 28% | 0.1 | 2.5% | 1 | 0.0 | 1%
Cc1ccc(N(Cc2cccs2)C(=O)Nc2cccc(Cl)c2)cc1 | / | 3.4 | 1.3% | 3 | / | /
CCN(C[C@H]1N[C@@](Cc2ccccc2)(C(=O)OC)[C@H]2C(=O)N(C)C(=O)[C@@H]12)C(=O)Nc1ccccc1 | / | -0.9 | -1.4% | -15 | / | -2%
CCS(=O)(=O)N1CCCC(C(=O)NCCCN(C)Cc2ccccc2)C1 (configuration not stated) | 8% | -0.7 | -0.5% | -3 | 3.6 | 47%[activator]
Nc1nc2sc3c(c2cc1C(=O)NCC(=O)O)CCCC3 | -26% | 0.2 | -1.4% | 3 | 15 | 11%
COc1ccc(-c2ccc(NS(=O)(=O)c3cc(C)c(C)cc3C)cc2)nn1 | / | 4.0 | -1.7% | -8 | / | /
COc1ccc(CN2CC(C(=O)NCCCN3CCN(Cc4ccccc4)CC3)CC2=O)cc1 (configuration not stated) | -55%[inhibitor] | 2.1 | 0.4% | -10 | -0.2 | 10%
COc1cccc(C2c3[nH]c4ccccc4c3CCN2Cc2ncc[nH]2)c1 (configuration not stated) | -18% | 0.5 | / | -3 | -4.0 | -1%
Clc1ccc(SCCCCn2cncn2)cc1 | -2% | 0.3 | -2.4% | -6 | 0.9 | 7%
CCn1cc(C2Nc3ccccc3C(=O)N2O)c(C)n1 (configuration not stated) | -12% | -0.1 | -5.2% | -5 | 1.5 | -3%
CS(=O)(=O)c1ccc(Cl)c(NC(=O)CNC(=O)c2ccc3c(c2)OCO3)c1 | -1% | 0.8 | / | 9 | / | -13%
C=CCN(Cc1cccc(OC)c1OC)S(=O)(=O)N(C)C | 19% | -0.3 | 0.6% | 0 | 2.5 | -3%
CCO[C@@H]1OC(C(=O)O)=C[C@H](C)[C@H]1CCCO | ? | -0.8 | -2.1% | -8 | -0.3 | 1%
Cc1ccc2c(c1)N(CCC(=O)NCCCN1CCCC1)C(=O)C(C)O2 (configuration not stated) | -17% | 0.6 | / | -4 | -17 | 11%
O=C(COC(=O)C1CC2C=CC1C2)NCc1ccc(F)cc1 (configuration not stated) | -7%[15.4 µM] | 0.1 | 1.9% | -19 | 1.0 | 11%
COc1ccc(CN2C(=O)c3oc4ccccc4c(=O)c3C2c2ccc(O)c(OC)c2)cc1 (configuration not stated) | -7% | 0.3&-0.5 | -0.4%&-0.3% | 20&-8 | 2.7 | 20%
Cc1nnc(Sc2nc3c(c(=O)n(C)c(=O)n3C)n2Cc2ccc(Cl)cc2)s1 | -9% | -0.2 | -2.6% | -12 | -0.5 | 9%
CCOC(=O)CSc1ncc(-c2cccc(Cl)c2)cn1 | -32%[inhibitor] | 1.1 | -1.3% | 13 | 1.5 | -25%
CCN(CC)c1ccc(/C=N/NC(=O)CNC(=O)c2ccccn2)cc1 | -3%[15.4 µM] | 3.2 | / | 23 | -0.2 | -19%
CCCCC(=O)N=c1sc2cc(S(C)(=O)=O)ccc2n1C | 6% | 0.6 | 0.9% | -10 | -1.1 | -10%
CCn1c(SCc2nc(-c3ccc(Cl)cc3)no2)nnc1-c1ccco1 | 6% | -1.1 | 1.6% | 9 | 1.4 | -7%
COc1ccc(C(=O)NCCS(=O)(=O)N2CCC3(CC2)OCCO3)cc1 | 2% | -0.6 | 1.0% | -9 | / | ?
COc1ccc([N+](=O)[O-])cc1NC(=O)c1ccccc1N(C)S(C)(=O)=O | -1% | 3.0 | / | 31 | -0.2 | -8%
O=C(OCC(=O)N1CCCCC1)c1cc(S(=O)(=O)N2CCOCC2)c(Cl)cc1Cl | 15%[15.4 µM] | 0.2 | -9.5% | -4 | / | -21%
Cc1ccc(NC(=O)CSc2nnc(-c3cnccn3)n2Cc2ccco2)cc1 | -8% | 1.1 | -2.1% | 3 | 7.7 | 13%
CCSc1nnc(NC(=O)c2ccc3nc[nH]c3c2)s1 | -4%[15.4 µM] | -0.4 | 0.9% | -17 | / | -7%
O=C(NCCn1cccn1)C1CCC(=O)N(CCc2cccc(F)c2)C1 (configuration not stated) | ? | -0.4 | 0.0% | 8 | / | 18%
C/C=C(/C)C(=O)OC1Cc2c(ccc3ccc(=O)oc23)OC1(C)C (configuration not stated) | / | / | 4.3% | / | -4.1&4.6 | -12%
CN(C(=O)COC(=O)Cn1cnc2ccccc21)C1CCCCC1 | 6% | -0.3 | 1.4% | -1 | / | -1%
COc1ccnc(CS(=O)c2nc3cc(C(O)(F)F)ccc3[nH]2)c1OC (configuration not stated) | 7%[15.4 µM] | -1.0 | 0.6% | 2 | -4.6 | -8%
COc1ccc([C@H]2N[C@]3(CCCN(Cc4cccn4C)C3=O)[C@H]3C(=O)N(Cc4ccccc4)C(=O)[C@@H]23)cc1 | -16% | -0.4 | -1.3% | -7 | / | /
COc1cccc(OC)c1C(=O)OCC(=O)NCC1CCCCC1 | -8% | 0.5 | -5.4% | 4 | / | /
O=C(NC1CCCCC1)C(=S)NCc1ccccc1 | 9% | -0.1 | 1.5% | 15 | -0.3 | -21%
N#Cc1cc2c(nc1SCC(O)CS(=O)(=O)Cc1ccccc1)CCCC2 (configuration not stated) | 13% | 1.2 | -3.9% | -14 | -0.6 | -14%
CCCc1cc(N2CCOCC2)n2nc(C)c(-c3ccccc3)c2n1 | 3% | 3.0 | -5.0% | 9 | -3.8 | 9%
CCOC(=O)C1(CCc2ccccc2)CCN(C(=O)c2cnc(C)cn2)CC1 | 7% | 0.1 | / | -15 | 1.4 | -1%
COC(=O)c1c(O)cc(C(C)(C)C)n(-c2ccccc2)c1=O | -40% | -0.7 | 1.5% | -16 | 5.8 | -10%
CCOc1ccc(/C=C/C(=O)Nc2sc3c(c2C(=O)OC)C(C(=O)OC)CC3)cc1 (configuration not stated) | / | -0.7 | -5.3% | 2 | / | /
NC(=O)N/N=C/CCc1ccccc1 | 0%[15.4 µM] | 0.3 | / | 12 | -0.1 | 14%
COc1ccc(-n2nnnc2-c2cnc(N3CCCC3)nc2C(F)(F)F)cc1 | 10% | 1.9 | -4.7% | 4 | 2.3 | ?
COC(C(=O)Nc1ccc(C(N)=O)cc1)c1ccccc1 (configuration not stated) | 13% | -0.3 | -0.9% | 20 | -3.5 | 8%
N#Cc1ccc2c(c1)nc1ccccn12 | 12%[15.4 µM] | 0.9 | / | 9 | -0.2 | 6%
CC(NC(=O)NC1CCCCC1)C(c1cccs1)N1CCOCC1 (configuration not stated) | 17% | -0.5 | -1.7% | -5 | 1.4 | 2%
Cn1c(=O)n(CCCc2ccccc2)c(=O)c2c1nc1n2CCN1c1ccccc1 | / | -0.6 | -15% | 9 | / | /
CNC(=S)Nc1ccc(Cc2ccncc2)cc1 | 11% | 1.3 | / | -9 | -1.2 | 0%

Additional records:
SMILES | gsp agonist | TRPML1 ag | ClpP mod | TRPML1 blocker | Menin-MLL FL inh | gsp antagonist
O=C(Cn1nnc(-c2cccs2)n1)NCc1cccs1 | 2%[15.4 µM] | -0.7 | / | 34 | -3.9 | 12%
CC(=O)Nc1ccc(S(=O)(=O)NC(CC(=O)O)c2ccc(OC(C)C)cc2)cc1 (configuration not stated) | 9% | -0.1 | -2.2% | 22 | 2.2 | 8%
COc1ccc(-n2nc(C(=O)NCC(=O)Nc3cc(OC)c(OC)c(OC)c3)c3ccccc3c2=O)cc1OC | ? | 0.5 | / | 7 | 2.3 | -21%
Cc1ccc(CN(C(=O)c2csnn2)C(C(=O)NC2CCCC2)c2ccc(C)o2)cc1 (configuration not stated) | 7% | -0.8 | -0.3% | 6 | -0.8 | -16%

This is a random part of the collection; overall some 2.1% were active at least once.
